Assay outcomes (PubChem)
Rce1 inh: inhibitors of yeast Ras-converting enzyme; AID 2563; yeast membranes, quenched prenylated peptide cleavage fluorescence; Q03530; calls only; 290,000 tested, 0.27% active;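 active = fall in fluorescence gain of 50% or more versus controls, with final raw signal at or below 3038400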;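 note: plate controls were neutral control wells for no effect and wells lacking membranes for full effect; tested at 10 µM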
Target sequence (Q03530 whole entry, looked up): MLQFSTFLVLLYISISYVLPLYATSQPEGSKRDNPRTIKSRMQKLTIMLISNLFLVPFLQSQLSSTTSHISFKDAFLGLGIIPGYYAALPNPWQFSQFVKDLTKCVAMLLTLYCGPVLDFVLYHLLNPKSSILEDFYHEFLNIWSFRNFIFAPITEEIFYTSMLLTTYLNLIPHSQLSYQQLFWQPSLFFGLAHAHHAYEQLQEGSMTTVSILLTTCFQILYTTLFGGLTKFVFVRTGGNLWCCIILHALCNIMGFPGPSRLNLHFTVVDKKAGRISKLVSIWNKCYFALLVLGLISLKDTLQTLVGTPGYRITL
CSC inhib: blocks cancer stem cells | AID 2717 | 300,000 tested, 1.1% active | inhibition, % at 7.5 µM | cancer stem cell-like cells viability, luminescence;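 active = mean at 75% or more and at least half the replicates too; tested in HMLE shEcad cells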;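 note: 0% = median of negative and 100% = median of positive control wells; the first replicate is given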
Yeast UUG start: modulators of start codon recognition fidelity in yeast. 350,000 tested, 0.13% active. AID 602363. activity score, % at 18.7 µM. S. cerevisiae UUG-firefly luciferase reporter, luminescence/redox ratio;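 active = replicate mean at a twofold rise or more, about +100% in these data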;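 note: firefly luciferase made from a UUG start codon reports start codon fidelity; reporter light over untreated wells divided by growth signal over untreated wells; some hits fall short of that in this replicate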
PABP FP inh: PABP-poly(A) binding inhibition. P11940. PABP-poly(A) RNA binding, fluorescence polarization. inhibition, % at 35 µM. 290,000 tested, 1% active;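 active = 50% or more with normal probe brightness, or confirmed in later tests; about a fifth of its hits are not listed in these tables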;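 note: calls also rest on retests at 20 µM and on dose response follow-up; controls were probe without protein and protein plus probe with vehicle; some compounds called inactive have numbers as strong as hits; many hits fall short of the cut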
eIF4H inh: inhibitors of RNA binding by human eIF4H; Q15056; eIF4H fluorescence polarization binding assay; inhibition, % at 35 µM; 290,000 tested, 0.94% active;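 active = 50% or more with normal probe brightness, or confirmed in later tests; about a fifth of its hits are not listed in these tables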;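 note: calls also rest on retests at 20 µM and on dose response follow-up; 0% = protein and probe with vehicle and 100% = probe without protein; strong numbers were not always called active; many hits fall short of the cut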
MT1-MMP act inh: blocks activation of human MT1-MMP. GFP/RFP ratio change, % at 20 µM. P50281. HT1080 RFP-PRO-GFP cells, GFP/RFP ratio fluorescence, overnight; percent of plate control window, DMSO zero. 360,000 tested, 0.061% active;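 active = GFP/RFP ratio change of at least 30% with cell ATP level not reduced by more than half and red fluorescence within 50% of control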; note: strong numbers were not always called active
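system = RFP-PRO-GFP reporter HT1080 cells | dosing = 20 µM single dose, 1% DMSO | timing = overnight cell settling, then overnight compound exposure, 37 °C, 5% CO2 | read-out basis = GFP/RFP fluorescence ratio | controls = DMSO and RFP-L50D-GFP cell wells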
HIV Env fusion: blocks HIV Env-driven cell-cell fusion | HeLa-JRFL Env/CEM21 cell fusion, luciferase | 360,000 tested, 1.1% active | inhibition, % at 12.3 µM | AID 651610;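 active = mean replicate inhibition score of at least 50 and every replicate individually at or above 50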;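 note: 0% = plate neutral controls and 100% = maraviroc near 300 nM; one replicate is shown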
eIF4H inh retest: recorded beside eIF4H inh, whose call it bears; inhibition, %; compound at 20 µM; confirmation average;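 mean of two retest wells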
PABP FP inh retest: second read-out of PABP FP inh, no call of its own (marks repeat the call); inhibition, %; compound at 20 µM; confirmation repeats;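 mean of two retest wells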
MT1-MMP act inh RFP: recorded beside MT1-MMP act inh, whose call it bears; RFP signal change, %; measured here: RFP expression control read;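 0 = vehicle wells; hits needed this value within 50% of zero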
The depositor's hits bear a star; i = inactive; · = not tested or not shown; & = joins results of further samples.

SMILES	Rce1 inh	CSC inhib	Yeast UUG start	PABP FP inh	eIF4H inh	MT1-MMP act inh	MT1-MMP act inh RFP	HIV Env fusion	others
CCOC(=O)c1sc2nc3c(SCC(=O)O)cc(C(=O)c4ccccc4O)cn3c(=O)c2c1C	i	7.2	·	-2.0	61.0	3.6	5.1	0.5	eIF4H inh retest=-9.5;PABP FP inh retest=1.0
CN1C(C(=O)Nc2ncccn2)=C(O)c2ccccc2S1(=O)=O	i	-5.5	-14.3	5.2	-2.3	-5.8	-1.5	-26.2
Cc1cc(F)ccc1NC(=O)c1ccc(NS(=O)(=O)c2cccs2)cc1	·	·	-2.1	·	·	-5.4	-0.3	2.4
CCCCCCc1cc2cc(-c3nnc(-c4ccccc4)o3)c(=O)oc2cc1O	i	118.3*	-13.0	102.4*	70.4*	-445.9	-30.7	-61.6
O=C(Cn1nc(C(=O)O)c2ccccc2c1=O)Nc1ccc(Cl)c(S(=O)(=O)N2CCOCC2)c1	·	-0.4	-6.2	·	·	-4.5	1.0	-2.6
CN(CCO)C(=O)c1c(NC(=O)c2ccccc2)sc2c1CCCC2	·	7.1	-13.4	-0.7	-7.9	-0.2	2.8	7.3
O=C(CN(CC1CCCO1)C(=O)CNS(=O)(=O)c1ccc(Cl)cc1)NCCc1ccccc1 (stereo unspecified)	i	6.2	-5.1	-0.5	-0.8	3.4	-0.2	·
COc1c[nH]n(C2CCCCC2)c(=O)c1=O	i	3.5	-6.6	-0.8	1.6	4.7	9.7	-41.8
Clc1cc2c(c(Cn3cnc4ccccc43)c1)OCOC2	·	-11.4	-15.8	5.2	3.6	-3.4	-0.9	-128.4
Cc1ccc(NC(=O)COc2cccc(/C=C3\SC(=S)N(CCC(=O)O)C3=O)c2)cc1Cl	i	-3.4	·	21.3	46.8	6.1	-3.8	-15.0
COc1ccc(NC(=S)N(CCc2c(C)[nH]c3ccccc23)Cc2cccnc2)cc1	i	-6.8	-17.4	12.3	-4.5	8.6	0.8	-17.1
Cc1ccc(-n2ncc3c2CC(C)(C)CC3NC(=O)CCc2ccncc2)cc1 (stereo unspecified)	i	-7.4	-18.0	-1.1	8.8	0.0	0.3	0.0
O=C(NC1CCOCC1)C1CCC(=O)N(Cc2ccc(Cl)cc2)C1 (stereo unspecified)	·	-6.1	-15.1	4.0	-15.3	1.1	0.6	-6.1
O=C(CSc1ccccc1)Nc1ccc(C(=O)Nc2ccc(O)cc2)cc1	i	·	·	18.8	-0.9	3.3	2.1	6.9
COc1cc(C(=O)NC2Cc3ccccc3C2)ccc1OC1CCN(C(C)=O)CC1	i	12.0	-22.4	-10.6	-3.7	-12.8	-5.3	-4.5
COc1ccc2[nH]cc(CCNC(=S)NCCc3ccccc3)c2c1	i	10.3	-20.6	6.8	5.3	4.1	-2.3	-3.3
O=C(COC(=O)C1CCC1)NCc1ccc(F)cc1	i	-2.0	-14.1	·	·	-0.9	3.8	-4.0
Cc1cc(C)cc(-n2c(SC(C)C(=O)NCc3ccc4c(c3)OCO4)nc3ccccc3c2=O)c1 (stereo unspecified)	i	-24.0	·	-19.2	-8.2	-2.1	-3.5	64.2*
CC1(C)C(=O)N(CCN2CCC(C(=O)c3ccc(F)cc3)CC2)c2ccccc21	·	30.4	-34.7	·	·	-4.5	-8.2	36.6
COc1ccccc1/C=C/C(=O)OCC(=O)NCCC1=CCCCC1	i	-12.1	4.2	-13.5	1.5	-1.3	0.4	2.0
Cn1c(-c2cc3ccccc3oc2=O)nc2ccccc21	i	-2.1	·	-3.5	2.6	-1.6	0.7	-34.3
O=C(COn1nnc2ccccc21)N1CCN(Cc2ccccc2)CC1	i	-2.3	·	-3.1	6.0	3.7	7.9	-15.6
C#CCN(C[C@@H]1[C@@H](OC(=O)NCc2ccc(OC)c(OC)c2)[C@@H](OC(=O)NCc2ccc(OC)c(OC)c2)Cn2c(=O)n(CCCCCC)c(=O)n21)S(=O)(=O)c1ccc(C)cc1	·	·	-4.2	·	·	0.6	-4.1	-8.0
O=[N+]([O-])c1cc(C(F)(F)F)cc([N+](=O)[O-])c1NCCN1CCNCC1	i	52.2	·	-5.2	4.7	3.5	-0.9	2.0
CCc1ccc(/C=C/C(=O)C2C(=O)c3ccccc3C2=O)cc1	i	54.9	·	7.6	1.0	-111.2	19.0	-96.3
COc1ccc(CCNC(=O)C2CCCN(c3nc(C)cc(C)n3)C2)cc1 (stereo unspecified)	i	7.8	·	1.7	-2.2	2.0	0.7	-1.6
CS(=O)(=O)N(CC(=O)NCC1CCCO1)c1cccc([N+](=O)[O-])c1 (stereo unspecified)	i	-3.6	·	0.2	3.1	0.1	1.9	-8.0
CCCc1nc2ccccc2c(=O)n1/N=C/c1c(C)[nH]n(-c2ccc(C)cc2)c1=O	i	35.2	·	2.1	3.1	10.1	7.8	·
C[C@H](CO)N1C[C@H](C)[C@@H](CN(C)Cc2ccc(C(=O)O)cc2)Oc2c(NC(=O)c3ccncc3)cccc2C1=O	·	-8.8	-1.2&1.0	·	·	0.3	3.2	9.8
CCN1C(=O)N[C@@H](c2cccs2)C(C(C)=O)=C1C	i	-15.1	-17.5	0.7	-8.0	-3.0	2.4	47.9
O=C(CSc1nnc(-c2cccnc2)n1Cc1ccco1)Nc1nc(-c2ccc(F)cc2)cs1	i	-0.1	-13.6	5.0	3.6	-15.7	-22.8	-14.0
CC(=O)Nc1cccc(OCCCNC(=O)c2ccc(F)cc2)c1	·	12.2	1.6	-10.0	0.2	1.1	-2.1	-0.5
Cc1ccc(-c2nnc(COc3cccc(-n4cnnn4)c3)o2)cc1	i	0.1	10.9	-2.4	-9.4	0.7	-1.5	-38.6
O=C(/C=C/c1ccccc1)N1c2ccccc2Sc2ccc(C(F)(F)F)cc21	i	23.0	·	-2.8	-6.8	1.3	1.1	-2.6
Cc1cc(C)cc(OCC(=O)Nc2ccc3c(c2)OCCO3)c1	i	-5.4	·	-9.1	2.9	2.0	-3.6	-9.7
COC(=O)c1ccccc1NC(=O)C/C(C)=N/NC(=O)CC#N	i	12.4	·	-2.0	-6.7	-1.0	-0.5	16.4

Structures above containing a nitro group on carbon:
SMILES	Rce1 inh	CSC inhib	Yeast UUG start	PABP FP inh	eIF4H inh	MT1-MMP act inh	MT1-MMP act inh RFP	HIV Env fusion	others
O=[N+]([O-])c1cc(C(F)(F)F)cc([N+](=O)[O-])c1NCCN1CCNCC1	i	52.2	·	-5.2	4.7	3.5	-0.9	2.0
CS(=O)(=O)N(CC(=O)NCC1CCCO1)c1cccc([N+](=O)[O-])c1 (stereo unspecified)	i	-3.6	·	0.2	3.1	0.1	1.9	-8.0

Next section:
SMILES	Rce1 inh	CSC inhib	Yeast UUG start	PABP FP inh	eIF4H inh	MT1-MMP act inh	MT1-MMP act inh RFP	HIV Env fusion	others
COc1cc(C(O)P(=O)(OCC(C)C)OCC(C)C)cc(OC)c1OC (stereo unspecified)	i	-6.6	-7.2	2.7	5.4	-2.5	-2.6	·
O=C(O)c1ccc(Nc2nc3ccccc3nc2NS(=O)(=O)c2cccs2)cc1	i	-12.6	-21.7	5.8	-5.9	7.4	5.5	-7.1
CC(=O)c1c(C)[nH]c(C(=O)Nc2cccc(S(=O)(=O)N3CCCCC3)c2)c1C	·	-0.6	1.8	·	·	7.8	-7.4	·
O=C(Nc1ccc(Cl)cc1C(=O)N1CCOCC1)c1cccc([N+](=O)[O-])c1	i	-4.6	·	8.3	-6.3	·	·	1.6
COc1cc(C2=NOC(C(=O)Nc3cccnc3)C2)cc(OC)c1OC (stereo unspecified)	i	-8.5	-5.2	8.0	-6.0	4.4	4.1	0.0
O=C(Cn1ccc(=O)[nH]c1=O)NCCO	i	-5.4	·	-31.8	-6.7	-1.7	0.4	0.1
CCc1c(C)nc2ncnn2c1Nc1ccc(C#N)c(Cl)c1	i	-7.5	0.9	18.4	5.5	-0.2	6.4	-25.9
CN(C)CCNC(=O)c1cccc(-c2cnc3c(NC=O)cc(-c4ccc(F)cc4)cn23)c1	·	·	-1.3	·	·	-2.7	3.7	-23.5
COc1ccc2[nH]c3nc(SCC(=O)Nc4ccc5c(c4)OCO5)nnc3c2c1	i	·	-5.5	2.6	-0.3	6.8	-0.7	-11.2
CCNS(=O)(=O)c1ccc(CCC(=O)NCc2cccnc2)cc1	i	-6.7	0.1	-14.4	1.0	2.7	0.7	2.4
CCOC(=O)C1=C(C)N=C2SC(CC)C(=O)N2C1c1cccc(F)c1 (stereo unspecified)	i	-3.4	-7.9	4.5	4.4	-40.2	-28.9	·
O=C(OCc1ccccc1)C1CCCN1C(=O)c1ccccc1[N+](=O)[O-] (stereo unspecified)	i	-8.4	·	-10.2	-1.0	5.7	3.4	-43.3
CN1CCCN(S(=O)(=O)c2cccc(C(F)(F)F)c2)c2nc3ccccc3nc21	·	12.6	-14.2	·	·	2.2	-0.1	·
COCCCNC(=S)N1CCC(C(=O)c2ccc3c(c2)OCCO3)CC1	·	12.0	·	4.7	-5.1	3.4	-3.8	-2.0
O=C(COC(=O)C1CCN(S(=O)(=O)c2cccs2)CC1)Nc1ccc(F)cc1F	i	-12.4	-12.9	10.2	-8.8	0.1	-1.3	-15.5
O=C(NCc1cccnc1)C1CCCN(S(=O)(=O)c2cccc3nsnc23)C1 (stereo unspecified)	i	-7.4	-23.3	36.2	-0.8	-2.3	-4.0	·
CN(CC(=O)Nc1ccc(N2CCOCC2)cc1)C(=O)CCNC(=O)c1ccc(Br)cc1	i	-7.2	6.9	·	·	2.1	-5.2	-5.3

In the list so far, seven have two or more sulfur atoms:
SMILES	Rce1 inh	CSC inhib	Yeast UUG start	PABP FP inh	eIF4H inh	MT1-MMP act inh	MT1-MMP act inh RFP	HIV Env fusion	others
CCOC(=O)c1sc2nc3c(SCC(=O)O)cc(C(=O)c4ccccc4O)cn3c(=O)c2c1C	i	7.2	·	-2.0	61.0	3.6	5.1	0.5	eIF4H inh retest=-9.5;PABP FP inh retest=1.0
Cc1cc(F)ccc1NC(=O)c1ccc(NS(=O)(=O)c2cccs2)cc1	·	·	-2.1	·	·	-5.4	-0.3	2.4
Cc1ccc(NC(=O)COc2cccc(/C=C3\SC(=S)N(CCC(=O)O)C3=O)c2)cc1Cl	i	-3.4	·	21.3	46.8	6.1	-3.8	-15.0
O=C(CSc1nnc(-c2cccnc2)n1Cc1ccco1)Nc1nc(-c2ccc(F)cc2)cs1	i	-0.1	-13.6	5.0	3.6	-15.7	-22.8	-14.0
O=C(O)c1ccc(Nc2nc3ccccc3nc2NS(=O)(=O)c2cccs2)cc1	i	-12.6	-21.7	5.8	-5.9	7.4	5.5	-7.1
O=C(COC(=O)C1CCN(S(=O)(=O)c2cccs2)CC1)Nc1ccc(F)cc1F	i	-12.4	-12.9	10.2	-8.8	0.1	-1.3	-15.5
O=C(NCc1cccnc1)C1CCCN(S(=O)(=O)c2cccc3nsnc23)C1 (stereo unspecified)	i	-7.4	-23.3	36.2	-0.8	-2.3	-4.0	·

Rows were taken by chance; any-hit rate near 2.9%.
